Source: PubChem (National Center for Advancing Translational Sciences (NCATS))
2A firefly – lowers the firefly signal of an FMDV 2A StopGo reporter. Potency, µM (series often up to 57.5 µM), inactives show at the top dose signal change, negative = less light. HEK cells with a luciferase reporter of 2A StopGo recoding. AID 1745856. hit rate 0.23% among 120,000; active = well fitted falling curve with a large enough effect; inconclusive = small, poorly fitted or top-dose-only effect; inactive = no such curve, though single readings can be large or run the other way; also: nearly all actives have a fitted effect of over 60% in size; overnight with compound
2A Renilla – lowers the Renilla signal of an FMDV 2A StopGo reporter; hit rate 0.32% among 120,000; HEK cells with a luciferase reporter of 2A StopGo recoding; Potency, µM (titrated, usually from 57.5 µM), for the others: top-dose signal change, negative = less light; active means well fitted falling curve with a large enough effect; inconclusive means small, poorly fitted or top-dose-only effect; inactive means no such curve, though single readings can be large or run the other way; also: nearly all actives have a fitted effect of over 55% in size; overnight with compound
* hit, by the source's call; ? = inconclusive; & = joins results of further samples; [ ] = remark or other dose. % is scaled to controls: 0 for no effect and ±100 for the full control effect; potency is read from the fitted curve at half-maximal effect.

SMILES	2A firefly	2A Renilla
O=C(CC1N=C2c3ccccc3N=C(SCc3cccc(F)c3)N2C1=O)NC1CCCCC1 (stereo unspecified)	-1%	2%
O=C1Nc2ccccc2CCC1n1nc(-c2ccc(Cl)cc2)ccc1=O (stereo unspecified)	1%	-12%
COC(=O)Nc1ccc(CNC(=O)c2cccc(C)c2)cc1	32%[activator]	2%
O=C(c1ccc(F)cc1)N1CCN(Cc2c[nH]c3ccccc23)CC1	-4%	-4%
COc1ccc2c(c1OC)C(=O)OC2OC (stereo unspecified)	-5%	4%
O=C(CSc1nc2ccccc2c(=O)[nH]1)c1ccccc1	125%[activator]	21%
CC(C)c1ccc2occ(CC(=O)N(Cc3ccc(F)cc3)C3CCS(=O)(=O)C3)c2c1 (stereo unspecified)	0%	7%
O=C(O)CSCc1c[nH]c2ccccc12	-7%	-2%
CCOCCCNC(=O)C(c1ccc(OC)cc1)N(Cc1cccs1)C(=O)CNC(C)=O (stereo unspecified)	24%	3%
CC(C)CNc1cccc2c1S(=O)(=O)N(Cc1cn(Cc3ccc(F)cc3)nn1)Cc1ccccc1O2	-6%	114%[activator]
CCCCN(C)C(=O)Cn1c(=O)n(Cc2ccc3c(c2)OCO3)c(=O)c2sccc21	0%	30%[activator]
Cc1cccn2c(=O)c3cc(C(=O)Nc4ccc(Cl)c(Cl)c4)sc3nc12	-16%	-15%
CC(=O)c1ccc(NC(=O)c2nc3nc(C)cc(C(F)F)n3n2)cc1	41%[activator]	12%
CN(CC(=O)NC(=O)NCC(F)(F)F)CC(=O)Nc1ccc(Cl)c(Cl)c1	?	-10%[1.06 µM]
C/C(=N/NC(=O)c1cccs1)c1ccc(-c2ccccc2)cc1	63%[activator]	2%
O=C(Nc1cccc(Cl)c1)N1CCN(c2ccc(Cl)c(Cl)c2)CC1	?	?
Cc1nn(-c2ccccc2)c(C)c1CN(C)S(=O)(=O)c1ccc(Cl)c(Cl)c1	7%	12%
COc1ccc(-c2nc3c(c(SCC(=O)Nc4cccc(O)c4)n2)Cc2c(CO)cnc(C)c2O3)cc1	1%	5%
CC(=O)c1c[nH]c2cc(F)ccc12	18%	0%
CCOC(=O)C1CCN(C(=O)CSc2c3c(nc4ccc(Cl)cc24)CCCC3)CC1	22%	-9%

The final two compounds of the section before come first, to join the parts:
SMILES	2A firefly	2A Renilla
CC(=O)c1c[nH]c2cc(F)ccc12	18%	0%
CCOC(=O)C1CCN(C(=O)CSc2c3c(nc4ccc(Cl)cc24)CCCC3)CC1	22%	-9%
CCOc1ccc(S(=O)(=O)N(C(=O)c2ccncc2)c2ccc3oc(C)c(C(=O)OC)c3c2)cc1	?	84%[activator]
Cc1ccc(C)c(N2C(=O)N(Cc3ccccc3C)c3ccccc3S2(=O)=O)c1	41%[activator]	21%
CCc1nn(CC(=O)N2CCCCC2)c(=O)c2cc3sccc3n12	2%	1%
CCCCC1(C)NC(=O)N(c2ccc(Br)cc2)N1 (stereo unspecified)	70%[activator]	23%
CCn1c(C(=O)Nc2ccc(C)cc2C)cc2sc(Cl)cc21	-2%	-12%
COc1ccc(-n2ncc(C(=O)NCc3ccco3)c2C2CCN(C(=O)OC(C)(C)C)CC2)cc1	-9%	62%[activator]
Brc1ccc(-c2nc(-c3cccnc3)no2)cc1	183%[activator]	6%
COC(=O)c1cn(C(=O)c2cccc(C)c2)c2ccccc12	16%	8%
CCn1ccc2cc(S(=O)(=O)N3CCCN(C(=O)Nc4cc(Cl)ccc4C)CC3)ccc21	-1%	25%
CCCC(C(=O)NCc1ccc(OC)cc1)c1ccccc1 (stereo unspecified)	23%	15%
Cc1cc(NC2CCCC2)n2nc(C)c(-c3ccccc3)c2n1	131%[activator]	1%
COCCNc1cc(N2CCN(C3CCCCC3)CC2)c2noc3c2c1C(=O)c1ccccc1-3	-19%	-13%
O=C(CCNS(=O)(=O)/C=C/c1ccccc1)Nc1cc(Cl)cc(Cl)c1	2%	56%[activator]
Cc1ccc(N(C)C(=O)Cn2cc(S(=O)(=O)N3CCCC3)c(S(=O)(=O)N3CCCC3)c2)cc1	-12%	-2%
Cc1ccc(C)c(C(=O)N2CCC(c3nc4c(nnn4Cc4ccccc4)c(=O)[nH]3)CC2)c1	-19%	-10%
Cc1cccc(NC(=O)CSc2nccn2-c2cccc(Cl)c2)c1C	-16%	16%
Cn1c(=O)n(CC(=O)O)c(=O)c2c1nc1n2CCCN1c1ccc(Cl)cc1	-18%	-9%
Cc1ccc(/C=C/c2onc(C)c2S(=O)(=O)N2CCC(C(=O)Nc3ccc(Br)c(C)c3)CC2)cc1	-7%	-13%
CCCN(CCC)CCNC(=O)Cn1cnc2sc(C)c(S(=O)(=O)N3CCN(c4ccccc4OC)CC3)c2c1=O	-15%	-3%
Cc1ccc(-c2cc3ncc(C(=O)c4cc(Cl)c(C)cc4O)cn3n2)cc1	-12%&-8%	-14%&-7%

Full records as entered above. Values in the order: 2A firefly, 2A Renilla
Profile of Brc1ccc(-c2nc(-c3cccnc3)no2)cc1 = 183%[activator], 6%
Profile of O=C1Nc2ccccc2CCC1n1nc(-c2ccc(Cl)cc2)ccc1=O (stereo unspecified) = 1%, -12%

A different layout for 6 compounds above.
The line under a structure holds: 2A firefly	2A Renilla
CCn1ccc2cc(S(=O)(=O)N3CCCN(C(=O)Nc4cc(Cl)ccc4C)CC3)ccc21
    -1%	25%
COCCNc1cc(N2CCN(C3CCCCC3)CC2)c2noc3c2c1C(=O)c1ccccc1-3
    -19%	-13%
Cc1ccc(C)c(N2C(=O)N(Cc3ccccc3C)c3ccccc3S2(=O)=O)c1
    41%[activator]	21%
COC(=O)c1cn(C(=O)c2cccc(C)c2)c2ccccc12
    16%	8%
CCc1nn(CC(=O)N2CCCCC2)c(=O)c2cc3sccc3n12
    2%	1%
Cc1ccc(N(C)C(=O)Cn2cc(S(=O)(=O)N3CCCC3)c(S(=O)(=O)N3CCCC3)c2)cc1
    -12%	-2%

The listing continues:
SMILES	2A firefly	2A Renilla
COc1cc(NC(=O)c2ccccc2Br)ccc1NC(=O)c1cc2ccccc2o1	39%[activator]	8%
CCOC(=O)c1cccc(NC(=O)c2cc(S(=O)(=O)N3CCCCCC3)cn2C)c1	0%	2%
COC(=O)c1ccccc1NC(=O)Nc1nnc(N2CCCCC2C)s1 (stereo unspecified)	0%	7%
Cc1ccc(-c2nnc3ccccc3c2C(=O)Nc2cccc(C(F)(F)F)c2)cc1	125%[activator]	-12%
COC(=O)c1ccc(Oc2coc3cc(OC)ccc3c2=O)cc1	92%[activator]	-11%
C=CCn1c(N2CCN(Cc3cccc(Cl)c3)CC2)nc2c1c(=O)[nH]c(=O)n2C	2%	-2%
Cc1ccccc1NC(=O)C1CCC(CNS(=O)(=O)c2ccc3c(c2)C(C)(C)C(=O)N3C)CC1 (stereo unspecified)	?	-12%
CCC(CC)c1nn2c(=O)cc(COc3ccc(NC(=O)c4ccco4)cc3)nc2s1	-4%	7%
Cc1ccc(N2NC3(CCCCCC3)NC2=S)cc1	77%[activator]	21%
CCC(=O)N1CCN(c2ccc(Cl)cc2NC(=O)c2ccc(C#N)cc2F)CC1	8%	9%
Cc1ccc(CCNC(=O)c2oc(=O)c3ccccc3c2-c2ccc(C)cc2)cc1	-6%	4%
CCOC(=O)c1c(C)n(S(=O)(=O)c2ccc(C)cc2)c2ccc(NS(=O)(=O)c3ccc(C)cc3)cc12	2%	37%[activator]
CCOC(=O)Cn1cnc2c(cnn2-c2ccc(C)c(C)c2)c1=O	104%[activator]	-8%
Cc1cc(C)cc(NC(=O)c2c(C)oc3nc(C)nc(N4CCCC4)c23)c1	-4%	-5%
CC(C(=O)Nc1cnc2ccccc2c1)N1C(=O)c2ccccc2C1=O (stereo unspecified)	-3%	-18%
CCOC(=O)[C@H](CCc1ccccc1)N[C@@H](C)C(=O)N1[C@H](C(=O)O)C[C@@H]2CCC[C@@H]21	-12%[11.5 µM]	-9%
Fc1ccc(-c2nc(-c3cccs3)c(-c3cccs3)[nH]2)cc1	-7%	-10%
Cc1cccc(Cn2c(=O)n(CC3CCC(C(=O)NC(C)C)CC3)c(=O)c3sccc32)c1 (stereo unspecified)	-7%	-8%
CCOC(=O)c1sc(NCCCOC)nc1C(F)(F)F	27%	-2%
COCCCNC(=O)CS(=O)Cc1nc(-c2ccc(OC)cc2)oc1C (stereo unspecified)	7%	-8%
Nc1ccc([N+](=O)[O-])cc1O	-12%[22.9 µM]	-32%[114 µM]
CN1CCN(c2oc(-c3ccc(COc4ccccc4)o3)nc2C#N)CC1	9%	-3%
Cc1ccccc1OCC(=O)N(Cc1ccc(C(C)C)cc1)C1CCS(=O)(=O)C1 (stereo unspecified)	-21%	-9%
O=C(CCSc1ncnc2sc3c(c12)CCCC3)Nc1ccc(F)cc1	7%	18%
O=C(CN1CCN(C(=O)CCCc2c[nH]c3ccccc23)CC1)NC1CC1	-5%	-8%
COC(=O)c1ccc(Cn2c(SCc3ccccc3)nc3ccncc32)cc1	4%	-13%
CC(CCN1CCC(C(O)(c2ccccc2)c2ccccc2)CC1)Oc1ccc(C(F)(F)F)cc1 (stereo unspecified)	-9%	-4%
CN1CCN(c2ccc([N+](=O)[O-])c3cnccc23)CC1	1%	-15%
c1ccc(CNCc2cccc3ccccc23)cc1	121%[activator]	-5%
Cc1ccc(N2CCN(C(=O)c3c(C)oc4ncnc(N5CCCCC5)c34)CC2)c(C)c1	?	?
Cc1ccn2c(=O)c(C(=O)NCc3ccccc3Cl)c(O)nc2c1	-13%	-2%
COc1ccccc1N1CCN(C(=O)CSc2n[nH]c(-c3ccccc3)n2)CC1	-24%	-11%
O=C(CSc1ncnc2c1cnn2-c1ccccc1)NC1CCCC1	136%[activator]	-3%
C/C(=N\NC(=O)c1ccc(N(C)C)cc1)c1ccc(Br)s1	0%	11%
CCOCCOC(=O)C(C)Oc1ccc2c(=O)c(Oc3cc(C)c(Cl)c(C)c3)coc2c1 (stereo unspecified)	-2%	-5%
CC(=O)CSc1nnc2[nH]c(=O)cc(N)n12	-19%	-5%
C(=N\N=C1c2ccccc2-c2ccccc21)/c1ccccn1	267%[activator]	36%[activator]
CC(C)C(=O)N1N=C(c2ccc(Br)cc2)CC1c1ccc2nccnc2c1 (stereo unspecified)	121%[activator]	-9%
CCN(CC)c1ccc(NS(=O)(=O)c2cc3[nH]c(=O)c(=O)[nH]c3cc2C)c(C)c1	-13%	1%
Cc1ccc2c(c1)N(C(=O)CCC(=O)NCc1cccs1)CC(C)O2 (stereo unspecified)	-9%	-2%
Cc1ccc2nc(N3CCN(CCO)CC3)nc(-c3ccccc3)c2c1	-1%	-7%
CC1CC(=O)Nc2cc(S(=O)(=O)NCc3ccccn3)ccc2S1 (stereo unspecified)	17%	45%[activator]
Cc1ccc(-c2ocnc2C(=O)NCCC(C)C)s1	91%[activator]	14%
O=C(OCc1c(F)cccc1Cl)c1ccc(C2Nc3ccccc3S(=O)(=O)N2)cc1 (stereo unspecified)	0%	0%
Cc1c(C)n(Cc2ccccc2)c2ccc(C(=O)NC(C)c3ccccc3)cc12 (stereo unspecified)	-4%	0%
CCN1C(=O)c2ccccc2S(=O)(=O)c2ccc(C(=O)NCc3ccc(F)cc3)cc21	6%	0%
CCOC(=O)c1c(C)[nH]c(C)c1S(=O)(=O)N(C)CC(=O)Nc1ccc(C(C)C)cc1	8%	120%[activator]
Cc1nc(SCC(=O)NC2(C#N)CCCC2)n(C2CCCC2)c1C	11%	6%
NC1CSC(CCCCC(=O)O)C1N (stereo unspecified)	-1%	1%
Cc1ccc(-n2c(SCc3ccc(C#N)cc3)nnc2N2CCCC2)cc1	-7%	1%
COc1ccc(-c2nnc(SCC(=O)N(C)C3CCCCC3)o2)cc1OC	-17%	-13%
COc1ccc(-c2nn(-c3ccccc3)cc2C(=O)NCCN2CCOCC2)cc1	17%	26%

Compounds from the list above containing a cyano group:
SMILES	2A firefly	2A Renilla
CCC(=O)N1CCN(c2ccc(Cl)cc2NC(=O)c2ccc(C#N)cc2F)CC1	8%	9%
CN1CCN(c2oc(-c3ccc(COc4ccccc4)o3)nc2C#N)CC1	9%	-3%
Cc1nc(SCC(=O)NC2(C#N)CCCC2)n(C2CCCC2)c1C	11%	6%
Cc1ccc(-n2c(SCc3ccc(C#N)cc3)nnc2N2CCCC2)cc1	-7%	1%

Some of the compounds tested (hit frequency here may not be typical).
